RecA intein inh: Mtb RecA intein splicing inhibition; cell-free RecA intein splicing, fluorescence; inhibition, %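 (about 9 µM by stock and volumes)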; hit rate 0.75% among 290,000; in the data active = inhibition above about 30%; inconclusive = no clear call, values can overlap the other calls;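 also: 0% = vehicle wells and 100% = reference inhibitor control wells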
Target sequence (P9WHJ3 whole entry, looked up): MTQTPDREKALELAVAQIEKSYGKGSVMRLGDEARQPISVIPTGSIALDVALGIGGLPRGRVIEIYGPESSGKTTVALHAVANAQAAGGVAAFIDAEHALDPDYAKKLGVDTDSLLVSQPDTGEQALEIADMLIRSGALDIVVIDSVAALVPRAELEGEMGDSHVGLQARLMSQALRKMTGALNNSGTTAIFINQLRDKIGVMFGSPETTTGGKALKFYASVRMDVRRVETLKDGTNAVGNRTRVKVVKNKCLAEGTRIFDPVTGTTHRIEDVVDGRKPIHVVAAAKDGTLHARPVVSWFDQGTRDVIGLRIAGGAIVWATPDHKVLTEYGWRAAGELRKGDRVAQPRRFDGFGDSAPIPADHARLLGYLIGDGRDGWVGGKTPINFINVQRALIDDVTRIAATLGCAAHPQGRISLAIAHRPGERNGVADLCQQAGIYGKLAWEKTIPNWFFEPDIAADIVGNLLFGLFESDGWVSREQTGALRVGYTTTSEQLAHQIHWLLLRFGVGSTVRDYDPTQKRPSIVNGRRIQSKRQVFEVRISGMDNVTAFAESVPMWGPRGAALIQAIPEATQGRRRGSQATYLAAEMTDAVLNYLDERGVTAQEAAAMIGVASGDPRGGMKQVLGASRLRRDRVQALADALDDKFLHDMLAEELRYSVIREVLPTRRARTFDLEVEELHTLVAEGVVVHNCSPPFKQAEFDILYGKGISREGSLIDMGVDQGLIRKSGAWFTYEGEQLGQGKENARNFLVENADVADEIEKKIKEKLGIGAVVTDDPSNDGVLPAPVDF
Mtb growth: M. tuberculosis H37Rv growth inhibitors, H37Rv strain (AID 1626) | one-dose inhibition, % at 10 µM; IC50 in µM for titrated hits | M. tuberculosis H37Rv growth inhibition; higher % means a stronger effect | hit rate 0.95% among 220,000;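 active = confirmed in a dose series; inconclusive = inhibition above 80% but not taken into the dose series; inactive = below 80% or under 30% at every dose of the series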;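 also: bacteria incubated seven days before Alamar blue readout; 0% = bacteria only wells and 100% = bacteria with antibiotic wells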
YopH inh: YopH (Yersinia) phosphatase inhibition. fluorescence Ex485/Em525. AID 898. hit rate 0.16% among 140,000. inhibition, %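 (about 10 µM by stock and volumes)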;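 active = inhibition of 50% or more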;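 also: controls were vehicle for no effect and minimum signal wells for full effect; inactives centre near -20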
Mtb bLac sens: beta-lactam sensitization of Mtb H37Rv; M. tuberculosis H37Rv growth with meropenem, percent inhibition; hits of this screen are not shown here; inhibition, % at 25 µM; hit rate 0.27% among 330,000;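 active = about 74% or more and at least 40 points above the plate without the antibiotic, then above 30% in a dose series; inconclusive = first-round hits that could not be retested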;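 also: growth measured after seven days incubation then overnight dye step; 0% = bacteria only wells and 100% = bacteria with antibiotic; twin plates without the antibiotic show which effects depend on it; some results filed as inactive read as strong as hits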
Arbovirus inh: antivirals against arbovirus infection | arbovirus infection cell-based antiviral screen | inhibition, % at 10 µM | hit rate 0.37% among 200,000 | AID 1251;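 active = inhibition from about 30%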;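 also: bluetongue infection of BSR cells; cell survival read as ATP light after 72 h; 0% = infected wells without compound and 100% = uninfected wells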
Arbovirus inh repeat: further read-out of Arbovirus inh, marked with its call; inhibition, %; measured here: 10K subset replicate screen; many hits read low in the repeat;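 first of two repeat runs on a subset; 0% = infected and 100% = uninfected wells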
Starred values were filed as active, the others as inactive; u = inconclusive; x = no result given. Only part of the results is shown; rates above refer to the full screens.

SMILES	RecA intein inh	Mtb growth	YopH inh	Mtb bLac sens	Arbovirus inh	others
COC(=O)c1cc(CNC(=O)c2ccccc2OCc2c(C)noc2C)ccc1OC	1.3	x	x	12	x
CCOC(=O)N1CCN(C(=O)c2ccc(CS(=O)Cc3ccc(C)cc3)o2)CC1 (stereo not given)	-0.4	x	x	-10	x
Cc1ccc2c(c1)N(C(=O)CCC(=O)O)CCO2	-2.2	1%	-18	-3	4
CCN(CC)C(=O)Cn1cc(C(=O)C(=O)N2CCN(Cc3ccccc3)CC2)c2ccccc21	0.9	x	x	-6	x
CCc1ccc(NC(=O)C2=CC(c3cccs3)=NS(=O)(=O)N2C)cc1	1.9	x	x	1	x
COc1cc(S(=O)(=O)NCCCn2ccnc2)ccc1Cl	0.1	x	x	-1	x
CCc1nnc(NS(=O)(=O)c2ccc(NC(=S)NC(=O)/C=C/c3ccc(OC)cc3)cc2)s1	2.2	-6%	-21	2	3
CCC(Sc1n[nH]c(=O)[nH]c1=O)C(=O)OCc1ccccc1 (stereo not given)	1.7	-6%	-14	-3	13
O=C(CCc1nnc(C2CCCCC2)o1)N1CCCCC1CCn1cccn1 (stereo not given)	-1.5	-3%	x	-4	1
COc1cc(-c2cc(C(=O)N3CCN(c4ccccn4)CC3)c3ccccc3n2)cc(OC)c1OC	2.9	3%	-18	2	-22
COC(=O)CN1C(=O)C2(C(C(=O)OC)=C(N)Oc3ccccc32)C2=C1CC(C)(C)CC2=O (stereo not given)	-0.8	-2%	-10	-4	-4
CCOC(=O)N1CCN(c2ccccc2OC)CC1	-2.6	-6%	x	-4	x
CC(c1n[nH]c(=S)n1Cc1ccccc1)N(C)C (stereo not given)	17	-4%	x	3	8
CCOC(=O)Cc1nn(CCc2ccccn2)c(=O)c2ccccc12	-2.2	1%	-49	6	2
O=C(NC1CCCc2ccccc21)c1cccc(S(=O)(=O)N2CCOCC2)c1 (stereo not given)	-1.2	-6%	x	-1	5
Cc1ccc(O)c(C2=Nc3ccccc3N=C(c3cccs3)C2)c1	-13	-1%	-23	4	20
O=C(c1c(O)c2ccccc2oc1=O)C1CCCCC1	0.8	-3%	-15	-5	6
COc1ccccc1C1(O)C(=O)Nc2ccccc21 (stereo not given)	1.4	x	x	0	x
COCC1CCCCN1C(=O)c1ccc2nc(Cc3ccc(OC)c(OC)c3)oc2c1 (stereo not given)	0.1	x	x	-1	x
O=c1[nH]c(=S)[nH]c(O)c1N=Nc1cccc(S(=O)(=O)N2CCOCC2)c1	0.2	-13%	x	-9	x

Gathered by group: the entries above containing a thiophene ring, fused or not
SMILES	RecA intein inh	Mtb growth	YopH inh	Mtb bLac sens	Arbovirus inh	others
CCc1ccc(NC(=O)C2=CC(c3cccs3)=NS(=O)(=O)N2C)cc1	1.9	x	x	1	x
Cc1ccc(O)c(C2=Nc3ccccc3N=C(c3cccs3)C2)c1	-13	-1%	-23	4	20

Continued:
SMILES	RecA intein inh	Mtb growth	YopH inh	Mtb bLac sens	Arbovirus inh	others
CCOC(=O)c1cc2sccc2n1CC(=O)N1CCCC1	0.5	-9%	-27	7	-2
O=C(N1CCCCC1)N1CCN(C(c2ccccc2)c2ccccc2)CC1	21	1%	-13	8	-34
O=C(COC(=O)c1ccc2c(c1)OCCO2)Nc1cc(S(=O)(=O)N2CCOCC2)ccc1Cl	-1.4	1%	x	0	4
CCOC(=O)c1cc(OC(=O)c2ccccc2Br)n(-c2ccccc2)n1	-4.4	-4%	-20	7	8
CC[C@H]1CN2CCc3cc(OC)c(OC)cc3[C@@H]2C[C@@H]1C[C@H]1NCCc2cc(OC)c(OC)cc21	-1.7	2%	-26	53	-44
C=Cn1cc[n+](CC(=O)C(C)(C)C)c1	-0.1	-13%	-31	-6	-8
N#Cc1nc(COc2ccc(F)cc2)oc1NCCCn1ccnc1	-0.4	-8%	-45	-9	-5
O=C(COc1ccccc1)NCC(=O)N/N=C/C=C/c1ccccc1	4.6	2%	-40	-11	-12
CCOC(=O)c1cnc(SC)nc1N	-2.8	1%	5	4	0
c1ccc(-c2c[n+]3c(n2-c2ccccc2)CCC3)cc1	4.8	-6%	x	-10	x

Sorted by length of the SMILES (low to high): part of the list above
SMILES	RecA intein inh	Mtb growth	YopH inh	Mtb bLac sens	Arbovirus inh	others
CCOC(=O)N1CCN(C(=O)c2ccc(CS(=O)Cc3ccc(C)cc3)o2)CC1 (stereo not given)	-0.4	x	x	-10	x
CCN(CC)C(=O)Cn1cc(C(=O)C(=O)N2CCN(Cc3ccccc3)CC2)c2ccccc21	0.9	x	x	-6	x
O=C(COC(=O)c1ccc2c(c1)OCCO2)Nc1cc(S(=O)(=O)N2CCOCC2)ccc1Cl	-1.4	1%	x	0	4

Next records:
SMILES	RecA intein inh	Mtb growth	YopH inh	Mtb bLac sens	Arbovirus inh	others
NC(=O)CC(NC(=O)c1cccc(Br)c1)c1ccc(N2CCC(Br)CC2)c([N+](=O)[O-])c1 (stereo not given)	2.9	x	x	-2	x
C=CCn1nc([N+](=O)[O-])nc1Sc1cccc2cccnc12	1.9	0%	-24	-1	-31
O=C(NCCCN1CCN(CCCNC(=O)c2cc([N+](=O)[O-])ccc2Cl)CC1)c1cc([N+](=O)[O-])ccc1Cl	25	9%	-11	6	3
COc1ccc(-n2c(C)cc(/C=N/Nc3nnc(C)n3N)c2C)cc1	-1.3	20%	12	88	-30
COc1ccc(NC(=O)c2c[nH]n3c(=O)cc(C4CCN(C(=O)OC(C)(C)C)CC4)nc23)cc1Cl	-2.5	-4%	x	7	49*
CC1(C)Cc2c(sc(NC(=O)c3ccc(S(=O)(=O)N4CCCCCC4)cc3)c2C(N)=O)C(C)(C)N1	1.8	x	x	5	x
NC(=S)N/N=C/c1cn(CCC(=O)O)nc1-c1cccc(Br)c1	-0.7	-3%	x	-4	x
CCOc1ccc(N(CC(=O)NCCSCc2ccco2)S(=O)(=O)c2ccc(F)cc2)cc1	-4.4	x	x	-13	x
CCCCCCOc1cccc(N)c1	-0.6	17µM*	-43	98	-2
CCN(CC)C(=N)/C(C#N)=N/Nc1ccc(C)cc1	5.1	-5%	x	-6	x
Nc1ncnc(Nc2c(F)cccc2F)n1	x	-6%	x	-17	x
CC(=O)Oc1ccccc1C(=O)Nc1ccccc1C(=O)N1CCCC1	0.9	x	x	-1	x
C#CCOCCOCCOCCNc1nc(N2CCN(C(=O)[C@H](CCCCN)n3cc([C@@H](N)C(C)CC)nn3)CC2)nc(N2CCN(C(=O)[C@H](CCCCN)n3cc([C@@H](N)CC(C)C)nn3)CC2)n1 (stereo not given in full)	0.2	-1%	x	0	-2
CCOC(=O)N1CCN(Cc2cc(Cl)c3cccnc3c2O)CC1	4.3	17%	x	99	-22
O=c1cc(CCl)nc2scc(-c3ccccc3)n12	10	48%	x	97	x
COc1cc(CNc2nc3c(C)cc(C)cc3s2)ccc1O	7.0	x	x	4	x
Clc1ccccc1CN1CCN(c2ccccc2Cl)CC1	12	-1%	-7	1	-19
Cc1ccc(F)c(NC(=O)CCc2ccccc2)c1	x	-7%	-18	1	-5
CC(C(=O)Nc1ccccc1-c1ccccc1)N(C)Cc1nc2ccccc2c(=O)[nH]1 (stereo not given)	0.1	11%	x	1	-5
CCN(CC(=O)Nc1c(F)cccc1F)C(=O)CSc1ccccc1	0.1	x	x	-10	x
CCCN(CCC)c1ncnc2nc[nH]c12	-1.1	0%	-21	1	7
C=CCS(=O)(=O)N1CCCC(Cc2ccccc2C)(C(=O)OCC)C1 (stereo not given)	1.0	x	x	1	x
COC(=O)c1cn(N(C)c2ncc(C(F)(F)F)cc2Cl)c(=O)c2ccccc12	2.1	7%	-5	-9	-4
C/C(Cn1cnc([N+](=O)[O-])n1)=N/NC(=O)COc1c(Cl)cc(Cl)cc1Cl	x	u	-39	100	-9
COc1cc(NC(=S)NCCc2c[nH]c3ccccc23)c(OC)cc1Cl	6.4	7%	-31	-8	-33
Cc1ccc(CN2CCC(n3nccc3NC(=O)CCCc3ccccc3)CC2)o1	-0.2	x	x	-7	x
CC(C)CN(C(=O)COC(=O)c1cccn1C)c1c(N)n(Cc2ccccc2)c(=O)[nH]c1=O	1.0	x	x	-19	x
CCCC(C(=O)O)N1C(=O)/C(=C/c2cccn2C)SC1=S (stereo not given)	x	-7%	-7	1	0
Cc1cc(SCC(=O)Nc2cccc(S(N)(=O)=O)c2)c(C)cc1Br	4.7	-3%	x	3	-5
CCOc1ccccc1N1CCN(Cc2cccc(OC)c2OC)CC1	-5.2	-6%	-43	-3	7
COc1ccc(OC)c(NC(=O)C(=S)NC2CCCCC2)c1	5.8	17%	x	1	13
CCOC(=O)C1(C(F)(F)F)N=C(C(F)(F)F)Nc2ccccc21 (stereo not given)	-0.1	-6%	-29	0	12
Oc1c(C=C2N=c3ccccc3=N2)sc(=S)n1C1CCCC1	-6.3	7%	-22	-9	1
CC(C)CNC(=S)NC(=O)c1ccc(F)cc1	-0.9	5%	-22	5	3
CCCc1nc2sc3ccccc3c(=O)c2c(=O)n1Cc1ccco1	x	x	-41	x	5
COc1ccccc1N1CCN(CC(O)COc2c(OC)cccc2OC)CC1 (stereo not given)	-0.3	-1%	-27	13	-1
CCNC(=S)NNC(=O)c1csc(C)c1	-19	0%	-26	-7	5
COc1ccc2nc(C)cc(SCC(NC(C)=O)C(=O)OC(C)C)c2c1 (stereo not given)	13	3%	x	0	x
CC(=O)c1ccc(S(=O)(=O)NCCCC(=O)NCCc2ccccn2)cc1	-1.9	-4%	-16	-1	10
COc1ccc(CCN2C(=O)NC(NC(C)=O)(C(F)(F)F)C2=O)cc1OC (stereo not given)	-0.9	4%	-24	-1	-3
COc1ccc(C2NC(=O)C(C#N)=C(S)N2c2cccc(C)c2)cc1OC (stereo not given)	0.8	-6%	x	1	-12
Cc1c(C(=O)NNC(=S)NCc2ccc(Cl)cc2)oc2ccccc12	8.1	x	x	10	x
Cc1cccc(S(=O)(=O)c2c(C)cc(C)nc2Cl)c1	x	1%	x	-9	-6
O=C(Nc1ccc(Oc2ccccc2)cc1)C1CC1	-0.8	14µM*	x	87	-15
O=C(Nc1ccc(N2CCOCC2)c(Cl)c1)c1ccc(Br)o1	1.7	5%	-7	-1	-9
CC(CNCC1CCCO1)COc1cccc2ccccc12 (stereo not given)	0.8	5%	-33	-14	-9
C=C(C)COc1ccc(-c2nc(N)nc(C)c2-c2ccc(OC)cc2)c(O)c1	-1.6	2%	-22	2	1
CCCCc1nc2ccccc2c(=O)n1-c1ccc(O)cc1	1.3	0%	6	-3	6
CC1=CC(C)C2(COC(c3ccc[n+](C)c3)OC2)C(C)C1 (stereo not given)	x	-3%	x	x	1
COc1cccc(OCC(=O)Nc2cc(Cl)ccc2Oc2ccccc2)c1	6.9	4%	-29	3	8
(cont.)
SMILES	RecA intein inh	Mtb growth	YopH inh	Mtb bLac sens	Arbovirus inh	others
COc1ccc2c(c1)C=C(CN1CCN(C3CCCC3)C(CCO)C1)CO2 (stereo not given)	-5.2	-9%	x	27	-7
CC(C)CC(=O)Nc1cccc(NC(=O)CC(C)C)n1	-0.7	-2%	-26	2	5
CC(C)Cn1c(-c2ccc(Br)cc2)c[nH]c1=S	5.7	63%	x	-1	-4
CCc1ccc(N2C(=O)Nc3ccccc3C2(O)C(=O)N2CCN(c3ccccn3)CC2)cc1 (stereo not given)	9.0	-1%	x	14	12
CCOC(=O)c1nnn(-c2nonc2N)c1CN(C)Cc1ccccc1	1.6	-2%	-1	-6	5	Arbovirus inh repeat=0
O=C(CO)N/N=C/c1ccc(Cl)cc1	-2.3	7%	-4	-4	2
CC1(C)O[C@@H]2C[C@H]3[C@@H]4C[C@H](F)C5=CC(=O)CC[C@]5(C)[C@H]4[C@@H](O)C[C@]3(C)[C@]2(C(=O)CO)O1	0.8	-15%	-48	-1	21
CC(=O)c1cccc(NC(=O)COc2ccccc2C(=O)c2cc(C#N)c(=O)n(C3CCCCC3)c2)c1	-0.8	4%	-27	32	0
COCCNC(=O)C(c1ccc(C)cc1)N(C(=O)CCC(=O)Nc1ccccn1)C1CCCCC1 (stereo not given)	-3.7	x	x	-2	x
CCC(c1nnc(SCC(=O)NC2CCCCC2)n1Cc1ccccc1)N(C)C (stereo not given)	11	x	x	-1	x
CCOC(=O)c1c(C)[nH]c(C(=O)OC(C)C(=O)Nc2ccccc2OC)c1C (stereo not given)	2.8	x	x	u	x
O=C1CC(c2ccccc2)n2nc(N3C(=O)c4ccccc4C3=O)nc2N1 (stereo not given)	1.5	-6%	-51	5	3

A run of entries from the list above, as a working copy:
SMILES	RecA intein inh	Mtb growth	YopH inh	Mtb bLac sens	Arbovirus inh	others
CCC(c1nnc(SCC(=O)NC2CCCCC2)n1Cc1ccccc1)N(C)C (stereo not given)	11	x	x	-1	x
CCOC(=O)c1c(C)[nH]c(C(=O)OC(C)C(=O)Nc2ccccc2OC)c1C (stereo not given)	2.8	x	x	u	x
O=C1CC(c2ccccc2)n2nc(N3C(=O)c4ccccc4C3=O)nc2N1 (stereo not given)	1.5	-6%	-51	5	3

Assay outcomes deposited in PubChem BioAssay by several laboratories.
